Screening data as filed in PubChem BioAssay.
FGF22 binding = FGF22 (human) thermal shift binding | AID 651658 | calls only at 9.99 µM | recombinant FGF22 thermal shift, SYPRO orange fluorescence; percent of sucrose octasulfate shift, DMSO zero | 340,000 compounds, 1.5% hits | Q9HCT0;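 active = melting point raised past a set limit in the mean and every replicate; three in four hits are not shown here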
AF4-AF9 inh = inhibitors of human MLL-AF4/AF9 interaction | P42568 | AlphaScreen, biotin-AF4 peptide binding to FLAG-AF9 | inhibition, % at 10 µM | 350,000 compounds, 0.47% hits | AID 651704;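 active = every replicate reaching a set inhibition limit, whatever the replicate mean, cut at about 25% in these data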;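 also: 0% = plate neutral control median and 100% = total signal loss; the record names both 10 and 1 µM as test concentration; the first replicate is given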
Target sequence (P42568 whole entry, looked up): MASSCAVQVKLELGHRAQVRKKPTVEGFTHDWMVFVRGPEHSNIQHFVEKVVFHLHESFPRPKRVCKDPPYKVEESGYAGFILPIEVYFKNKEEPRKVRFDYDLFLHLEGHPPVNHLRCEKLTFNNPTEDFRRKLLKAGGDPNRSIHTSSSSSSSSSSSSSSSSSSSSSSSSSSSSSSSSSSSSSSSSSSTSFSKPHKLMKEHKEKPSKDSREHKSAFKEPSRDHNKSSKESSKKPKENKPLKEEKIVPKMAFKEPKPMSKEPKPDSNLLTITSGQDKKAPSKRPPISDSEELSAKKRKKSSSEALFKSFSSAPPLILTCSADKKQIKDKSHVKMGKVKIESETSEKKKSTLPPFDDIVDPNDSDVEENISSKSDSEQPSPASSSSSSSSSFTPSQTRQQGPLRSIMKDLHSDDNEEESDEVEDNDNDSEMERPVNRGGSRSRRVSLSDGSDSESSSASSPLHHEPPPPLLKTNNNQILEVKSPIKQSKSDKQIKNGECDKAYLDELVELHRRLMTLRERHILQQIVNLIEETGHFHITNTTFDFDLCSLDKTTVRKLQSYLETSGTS
UCH37 DUB inh = inhibitors of human deubiquitinating enzyme UCH37; Q9Y5K5; purified proteasome/UCH37, Ub-AMC cleavage fluorescence; inhibition, % (test concentration not listed); 330,000 compounds, 0.33% hits;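 active = mean of two replicates above 20%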;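 also: 0% = compound-free wells with enzyme and 100% = wells lacking proteasome; stock transfer was 100 nL into about 20 µL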
Target sequence (Q9Y5K5 whole entry, looked up): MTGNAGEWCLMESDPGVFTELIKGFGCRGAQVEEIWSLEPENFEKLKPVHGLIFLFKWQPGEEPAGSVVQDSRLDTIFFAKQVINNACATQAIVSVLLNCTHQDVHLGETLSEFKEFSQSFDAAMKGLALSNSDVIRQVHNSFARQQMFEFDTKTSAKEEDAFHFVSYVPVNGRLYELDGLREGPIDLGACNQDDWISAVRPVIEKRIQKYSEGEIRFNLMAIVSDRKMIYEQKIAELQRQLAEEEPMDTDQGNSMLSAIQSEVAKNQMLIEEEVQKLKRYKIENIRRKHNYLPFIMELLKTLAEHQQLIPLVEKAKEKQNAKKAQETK
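Schedule: 30 min plus 25 min, room temperature / Material: human UCH37 within purified proteasomes / Technique: AMC fluorescence intensity at 355/460 nm / Buffer or medium: pH 7.4 Tris-HCl (50 mM) with ovalbumin, ATP-MgCl2, DTT / Controls: wells without proteasome as full block, compound-free enzyme plus substrate as uninhibited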
A1 inh = inhibitors of the anti-apoptotic protein A1, read as caspase activation; MEF A1-2A-BIM cells, Caspase-Glo 3/7 luminescence, 3 h; percent of clofoctol response, vehicle zero; caspase activation, % (test concentration not listed); 330,000 compounds, 0.066% hits; AID 2462;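 active = over half of replicate activation scores above 10%, or exactly half above 10 with the replicate mean above 10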;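 also: wells of about 30 µL received 50 nL stock; many hits fall short of the cut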
Ecoli rRNA inh = inhibits bacterial ribosomal RNA function over humanized ribosomes. E. coli WT GFP vs humanized-ribosome RFP mutants, fluorescence, 24 h; stronger effect = lower value; DMSO median 0, no signal -100. GFP signal change (wild-type ribosome), % (test concentration not listed). 350,000 compounds, 1.6% hits;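 active = significant combined selectivity score with lowered wild-type GFP, culture density cut under 30%, mutant RFP and density less affected; inactive = any of these conditions unmet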; also: one replicate is shown; some compounds called inactive have numbers as strong as hits
Beta apoptosis = beta cell apoptosis inhibition; protection from apoptosis, % (concentration not given with the values); INS-1E cytokine-induced death, ATP luminescence, 48 h; percent of positive-control rescue, neutral wells zero; 300,000 compounds, 0.8% hits;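 active = all replicates at 75% or more, or half of them and the mean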;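 also: 0% = cytokine-treated negative control wells and 100% = positive control rescue; higher means more ATP so stronger rescue from cytokine killing; wells of about 40 µL received 100 nL stock; the first replicate is given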
T cruzi inh = blocks replication of Trypanosoma cruzi; T. cruzi beta-gal in NIH3T3, luminescence, 90 h; inhibition, % (no concentration beside the values); 300,000 compounds, 1.4% hits;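 active = mean inhibition across valid replicates above about 55%, limit read from the data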;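 also: signal also drops with host cell toxicity which is not excluded here; 0% = plate median of DMSO wells and 100% = zero luminescence signal; higher percent means less beta-gal luminescence so fewer parasites; stock transfer was 50 nL into about 50 µL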
E coli growth = blocks Escherichia coli growth. OD600, 23 h; stronger effect = lower value. OD600 absorbance (concentration not given with the values). 330,000 compounds, 0.21% hits;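 active = OD600 absorbance below the run mean of sample wells minus 3.6 SD, in any replicate, cut at about 0.56 in these data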;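 also: stock transfer was 300 nL into about 60 µL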
Ecoli rRNA inh OD600 = second read-out of Ecoli rRNA inh, no call of its own (marks repeat the call); OD600 change, %; measured here: OD600 growth;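 optical density of the mix in the first replicate; 0 = DMSO median and -100 = no signal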
Ecoli rRNA inh RFP = also measured in Ecoli rRNA inh; calls as there; RFP signal change, %; measured here: RFP humanized mutant strains;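 first replicate; 0 = DMSO median and -100 = no signal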
Starred values were filed as active, the others as inactive; i = inactive; / = no result given.

SMILES,FGF22 binding,AF4-AF9 inh,UCH37 DUB inh,A1 inh,Ecoli rRNA inh,Ecoli rRNA inh OD600,Ecoli rRNA inh RFP,Beta apoptosis,T cruzi inh,E coli growth
COc1ccc(CN2CCC(CNS(=O)(=O)c3cccc(C(F)(F)F)c3)CC2)cc1,i,-2.9,7.0,-0.5,7,1,0.1,7,36,0.68
COc1cc(/C=N/Nc2ccnc(=O)[nH]2)ccc1O,i,4.2,/,-1.5,3,1,-13,1,-13,/
O=C(O)c1cc(Cl)ccc1-c1ccc(/C=C/c2cc(C(F)(F)F)[nH]c(=O)n2)o1,i,-3.1,-20,-0.3,16,10,14,4,-6,/
O=C(CN1C(=O)COc2ccc(S(=O)(=O)N3CCCCC3)cc21)NCc1ccc(F)cc1,i,-11,3.3,-0.4,-3,-5,2.4,3,-14,0.68
COc1ccc(NC2CC(=O)NC2=O)cc1 (centres undefined),/,/,2.8,-0.2,/,/,/,/,-10,0.66
O=C(COc1ncnc2c(Cl)cc(Cl)cc12)NC1CCCCCC1,/,/,3.5,-0.8,/,/,/,0,2,0.68
Cc1ccc(N(C(C)C(=O)N2CCCC2)S(C)(=O)=O)cc1 (centres undefined),i,0.6,1.8,0.7,6,8,1.3,-11,-6,0.69
COc1ccc(CCCC(=O)N/N=C/c2ccccc2OC)cc1,i,3.3,/,1.7,-7,7,-0.9,-4,-7,/
O=C(CSC1=NS(=O)(=O)c2cc(F)ccc2N1)Nc1ccccc1,i,2.4,3.4,0.6,-2,4,0.6,-3,-11,0.67
Clc1cccc(CN2CCc3c([nH]c4ccccc34)C2)c1,i,-4.1,2.6,0.1,0,-12,14,10,59*,0.59
CCN(Cc1ccccc1)C(=O)COC(=O)c1n[nH]c2ccccc12,/,/,-7.1,-0.3,/,/,/,-2,/,0.73
CCn1c(CNC(=O)Cc2ccc(OC)cc2)nnc1SCC(=O)c1ccccc1,i,-10,4.3,/,10,4,1.7,/,/,0.7
CC(C)C[C@H]1CN=C(Nc2ccccc2)N1CC1CCCCCC1,i,4.9,-0.7,0.4,-15,-36,-0.7,25,/,0.72
Cc1ccc(CNC(=O)C2CC3Cn4c(nc5cc(C)c(C)cc54)C3N2C)o1 (centres undefined),i,-1.1,-0.7,-0.3,5,2,5.6,1,-11,0.65
CCOc1ccc(C2C(C(=O)c3ccco3)=C(O)C(=O)N2CCN2CCOCC2)cc1 (centres undefined),i,-0.4,10,1.1,18,8,0.3,-6,-2,0.7
CCOc1ccc(NC(=O)CN(C)C(=O)C2CC(=O)N(c3cccc(SC)c3)C2)cc1OCC (centres undefined),i,0.0,1.2,/,0,2,-0.1,/,/,0.67
CCN(CC(=O)O)S(=O)(=O)c1cc(Cl)ccc1Cl,/,/,-4.8,0.1,9,3,-0.5,-5,-7,0.76
COc1ccc(C2N(S(=O)(=O)c3ccccc3)CCN2S(=O)(=O)c2ccc(C)cc2)cc1 (centres undefined),/,/,4.3,-0.1,/,/,/,9,35,0.77
CC(NCCC1(Cc2ccccc2Cl)CCOC(C)(C)C1)c1cccs1 (centres undefined),i,3.9,4.9,1.7,-39*,-29*,4.5*,3,43,0.64
CSc1ccccc1OCc1cc(C(=O)NCCc2nc(C)cc(C)n2)no1,i,3.2,4.4,/,-28,-12,-4.9,/,2,0.71
Cc1cccc(NC(=O)Cn2cc(C=O)c3ccccc32)c1,i,-0.7,1.2,0.2,8,6,5.0,2,8,0.68
CCCCn1c(N)c(N(CC(C)C)C(=O)C2CC(=O)N(c3ccccc3C(C)CC)C2)c(=O)[nH]c1=O (centres undefined),i,5.4,1.5,-0.5,1,8,0.2,-4,-10,0.64
CN(C)S(=O)(=O)c1cc(NC(=O)CN2CCN(c3ccccc3F)CC2)ccc1Cl,i,0.4,0.5,-0.2,10,-17,1.9,-3,6,0.68
COc1ccc(-n2c(C)nn(C)c2=O)cc1,/,/,0.8,0.7,/,/,/,-6,-23,0.63
COCCCn1c(SCCc2ccccc2)nc2cc(OC)c(OC)cc2c1=N,i,-0.5,-1.1,-0.8,-41*,-19*,-9.0*,5,44,0.65
Cc1cc(C)n2nc(SCC(=O)Nc3ccccc3F)nc2n1,i,2.4,2.5,0.0,-1,6,-2.6,3,/,0.71
CN(Cc1cccnc1)Cc1cn(C)nc1-c1cccc(Cl)c1,i,8.4,1.1,0.2,4,5,0.5,-9,7,0.68
CC1CCCN(C(=O)CSc2nnc3ccccn23)C1 (centres undefined),i,1.1,/,-0.2,7,5,0.0,-5,/,/
CC(C)Cn1c(C(C)C)nc([N+](=O)[O-])c1S(=O)(=O)c1ccc(F)cc1,/,/,3.8,0.4,/,/,/,-10,-5,0.71
Cc1ccc(Cn2cccc(NC(=O)c3ccco3)c2=O)cc1,/,/,4.1,-0.6,/,/,/,-6,3,0.72
CCCCN(C)CCCNC(=O)CN1C(=O)CSc2ccc(S(=O)(=O)N3CCOCC3)cc21,/,/,3.0,0.2,/,/,/,3,-11,0.7
O=C(Nc1cccc(C(F)(F)F)c1)C(Sc1ncnc2ccccc12)c1ccccc1 (centres undefined),/,/,0.0,1.6,/,/,/,6,9,0.71
O=C(CSc1ccccc1F)NC(=O)c1ccccc1Br,i,3.0,4.7,0.3,-11,-7,1.6,0,/,0.71
O=C(Nc1ccccc1-c1nnn(CC(=O)N2CCOCC2)n1)c1ccc(F)cc1,i,-3.4,-0.9,-0.8,12,3,-1.6,-16,-1,0.67
COC(=O)c1cc2occc2n1Cc1nc(-c2ccc(Cl)cc2)oc1C,i,3.0,1.8,1.2,4,7,-1.5,/,5,0.75
COC(=O)CCN1CCN(S(=O)(=O)c2cccc(Br)c2)CC1,i,-0.4,1.4,0.7,15,-4,0.4,1,-15,0.63
O=C1CN(C(=O)CSc2nc3ccccc3n2CCc2ccccc2)c2ccccc2N1,/,/,3.1,-0.5,/,/,/,-7,3,0.71
CCSc1nnc(NC(=O)CC)s1,i,-3.0,2.4,0.2,7,8,-0.9,-7,-7,0.75
CCCN(C(=O)c1cccs1)c1c(N)n(Cc2ccccc2)c(=O)[nH]c1=O,i,0.8,-1.1,0.8,9,19,-0.9,-4,/,0.69
Cc1nn(C)cc1CNC(=O)c1ccccc1Br,/,/,-0.1,0.6,/,/,/,-4,-18,0.7
Cc1ccc(S(=O)(=O)CC(=O)N(C)C)cc1,/,/,3.2,0.2,/,/,/,0,-11,0.7
Clc1ccc(OCc2cnc(Cl)s2)cc1,/,/,0.2,-0.3,/,/,/,-9,-1,0.69
COc1ccc(/C=N/NC(=S)Nc2c(C)n(C)n(-c3ccccc3)c2=O)cc1OC,i,/,/,0.5,15,16,0.4,/,-8,/
CSc1nc(C)cc(SCC(=O)Nc2ccc(Cl)cc2Cl)n1,/,/,5.3,0.1,/,/,/,-5,10,0.73
CCc1ccc(OCC(=O)NNC(=S)NC(=O)C2CC2)c(Br)c1,i,-1.0,-0.5,-0.9,/,/,/,12,/,0.68
CN(C)c1ccc(C2CC(=O)C=C(Nc3ccccc3N)C2)cc1 (centres undefined),i,13,-0.1,-0.5,-8,11,-0.8,-7,-1,0.66
COc1ccc(-n2cnnc2SCc2csc(-c3ccccc3)n2)cc1,/,/,1.1,0.7,/,/,/,-4,33,0.67
CCn1c(O)c(N=NC2=NC(=O)CS2)c2ccccc21,/,/,5.5,0.1,/,/,/,-8,-11,0.69
Cc1ccc(CC2CC(=O)N(c3ncccn3)C2=O)cc1 (centres undefined),i,0.4,-1.9,-0.3,10,8,2.0,-1,-11,0.71
Nc1nc(SCC(=O)Nc2ccccc2-c2ccccc2)n[nH]1,/,/,-0.5,0.4,/,/,/,-4,-26,0.67
O=C(Nc1nc2c(s1)CCCC2)c1ccc(Br)s1,/,/,-9.3,-1.0,/,/,/,20,19,0.69
Cc1cccc(NC(=S)N2CCC(NC(=O)c3cccc(F)c3)CC2)c1,i,-1.9,/,-0.5,6,1,-0.4,1,-5,/
Cc1[nH]c2ccc(C(=O)NCCCN3CCOCC3)cc2c1C,i,3.3,2.0,0.3,3,21,2.1,-7,-10,0.69
O=C(N/N=C/c1c[nH]c2c1ccc1ccccc12)c1ccc([N+](=O)[O-])cc1,i,-3.4,/,-0.2,3,2,-1.2,-2,14,/
CCOC(=O)Nc1ccccc1C(=O)Nc1cc(C)cc(C)c1,i,0.2,5.0,0.6,1,-6,-2.6,-6,0,0.68
O=C(NNC(=S)Nc1ccc(F)cc1)[C@H]1C[C@@H]1c1ccccc1,/,2.0,5.1,1.3,0,-11,-3.6,-10,-42,0.69
COc1ccc(-c2cc(C(=O)N3CCCc4ccccc43)no2)cc1OC,/,/,7.1,-0.1,/,/,/,-4,20,0.75
COc1ccc(CCNC(=O)c2ccc(C)s2)cc1OC,i,-0.8,1.9,0.5,-16,-5,-1.5,-2,17,0.74
Cc1cc(-c2cc(-c3ccc(Cl)cc3)nc(N)c2C#N)co1,/,/,-80,1.4,/,/,/,15,/,0.71
COc1ccccc1N1CCN(/N=C\c2sccc2C)CC1,i,30*,/,0.1,-28*,-12*,-3.3*,/,-11,/
O=C(c1ccc(S(=O)(=O)N2CCCC2)cc1)N1CCCCC1,i,-1.4,-0.7,-0.1,2,6,-0.2,-9,4,0.69

Only part of the results is shown; the hit share may differ from the screen's.
